SARS PLpro yeast = inhibitors of SARS-CoV papain-like protease in yeast; S. cerevisiae expressing SARS-CoV PLpro, growth rescue; control for the full effect not named in the record; Potency, µM (doses to about 32.9 µM), for inactives: top-dose activity, positive = growth rescue; hit rate 0.19% among 330,000; also: 0% is about no effect; nearly all actives have a fitted effect of over 55% in size; growth read by luminescence after 48 h
Marburg entry inh = blocks Marburg virus binding to or entry into cells; Marburg virus pseudotyped entry inhibition, cell reporter; control for the full effect not named in the record; about a third of the inactives were read at about 46 µM; Potency, µM (titrated, usually from 37.8 µM), without a hit: at the highest dose activity change, negative = inhibition, hits mostly inhibitors; hit rate 1.8% among 300,000; AID 540276; active = well fitted inhibition curve with a large enough effect; inconclusive = small, poorly fitted or top-dose-only effect, or effect the other way; inactive = flat fitted curve, though single readings scatter; tested in HEK293 cells; about a fifth of its hits are not listed in these tables; also: % is scaled to controls: 0 for no effect and ±100 for the full control effect; luciferase read-out
LASV entry inh = inhibitors of Lassa virus binding or cell entry; Lassa virus pseudotype entry inhibition, cell reporter; control for the full effect not named in the record; Potency, µM (highest dose often 37.9 µM), for the others: at the top dose activity change, negative = inhibition, hits mostly inhibitors; hit rate 1.2% among 300,000; active means well fitted inhibition curve with a large enough effect; inconclusive means small, poorly fitted or top-dose-only effect, or effect the other way; inactive means flat fitted curve, though single readings scatter; tested in HEK293 cells; also: % is scaled to controls: 0 for no effect and ±100 for the full control effect; nearly all actives have a fitted effect of over 50% in size; luciferase read-out
2A StopGo = FMDV 2A StopGo reporter, luciferase signal. human cells with a luciferase reporter of 2A StopGo recoding; control for the full effect not named in the record. Potency, µM (top dose mostly 57.9 µM), for inactives: at the highest dose signal change, negative = less light. hit rate 1.2% among 410,000; active = well fitted falling curve with a large enough effect; inconclusive = small, poorly fitted or top-dose-only effect; inactive = no such curve, though single readings can be large or run the other way; tested in HEK293T cells; also: % is scaled to controls: 0 for no effect and ±100 for the full control effect; nearly all actives have a fitted effect of over 45% in size; luciferase light after 4 h
NS1 function inh = influenza NS1 inhibition; hit rate 0.4% among 270,000; Potency, µM (titrated, usually from 46.1 µM), for the others: top-dose activity, positive = more growth; S. cerevisiae slowed by influenza A NS1, growth recovery by OD600; also: actives are rising curves; nearly all actives have a fitted effect of over 50% in size
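A cell-based growth assay was used: compounds that relieve NS1-induced slow growth of budding yeast raise OD600. Assay medium was yeast nitrogen base with ammonium sulphate and -URA supplement, pH 6.0, with 2% galactose.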
Cruzain inh Det = inhibitors of Trypanosoma cruzi cruzain with detergent. AID 1478. P25779. purified cruzain, Z-FR-AMC fluorescence, 0.01% Triton. hit rate 0.43% among 200,000. Potency, µM, for the others: max response, negative = inhibition, most hits filed as inhibitors; active = well fitted curve in the direction sought with a large enough effect; inconclusive = small, poorly fitted or top-dose-only effect, or another doubt; inactive = no such curve, though single readings can be large; an effect the other way counts as inactive or inconclusive;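 also: plate controls were neutral wells for no effect and buffer without enzyme for full effect; nearly all actives have a fitted effect of over 40% in size; top concentration of the series not given in the record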
Target sequence (P25779 123-467 limits assumed): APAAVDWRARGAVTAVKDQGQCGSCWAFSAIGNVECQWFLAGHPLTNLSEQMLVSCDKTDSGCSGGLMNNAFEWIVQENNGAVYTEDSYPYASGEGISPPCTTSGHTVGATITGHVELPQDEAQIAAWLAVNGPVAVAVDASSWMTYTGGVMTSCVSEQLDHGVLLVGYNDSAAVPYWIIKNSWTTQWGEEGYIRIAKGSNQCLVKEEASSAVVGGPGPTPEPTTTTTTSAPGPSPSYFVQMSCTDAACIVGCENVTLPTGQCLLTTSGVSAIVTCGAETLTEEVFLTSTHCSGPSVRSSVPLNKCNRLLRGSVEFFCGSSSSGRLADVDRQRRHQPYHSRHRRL
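Detergent-containing arm of a paired screen for aggregation-based inhibition: 0.01% Triton X-100 present. Cruzain at 1.5 nM cleaved 2 uM Z-FR-AMC at pH 5.5 with 5 mM DTT; AMC fluorescence gain over 60 s measured activity.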
RE007 growth inh = less growth of the S. pombe RE007 Vpr strain. S. pombe RE007 Vpr strain, BacTiter-Glo ATP luminescence, 24 h; control for the full effect not named in the record. Potency, µM (highest dose often 92.2 µM), for inactives: at the highest dose activity change, negative = less growth. hit rate 0.21% among 360,000. AID 651644; active = well fitted falling curve with a large enough effect; inconclusive = small, poorly fitted or top-dose-only effect; inactive = no such curve, though single readings can be large or run the other way;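 also: % is scaled to controls: 0 for no effect and ±100 for the full control effect; nearly all actives have a fitted effect of over 50% in size; the assay follows cell death caused by Vpr and the record does not say whether a fall means rescue or toxicity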
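Fission yeast strain RE007, carrying one chromosomally integrated HIV-1 vpr copy, was seeded at OD 0.01 in PMG+AL medium with 23 nL pinned compound. After 24 h at 30 °C and 99% humidity, viability was read by BacTiter-Glo luminescence.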
Cruzain inh noDet = blocks cruzain activity in detergent-free assay | purified cruzain, Z-FR-AMC fluorescence, no detergent | Potency, µM, for the others: max response, negative = inhibition, most hits filed as inhibitors | hit rate 2.3% among 200,000 | AID 1476; active = well fitted curve in the direction sought with a large enough effect; inconclusive = small, poorly fitted or top-dose-only effect, or another doubt; inactive = no such curve, though single readings can be large; an effect the other way counts as inactive or inconclusive;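 also: plate controls were enzyme without inhibitor for no effect and buffer without enzyme for full effect; nearly all actives have a fitted effect of over 40% in size; top concentration of the series not given in the record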
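Purified cruzain at 1.5 nM, pre-incubated 15 min with compound at room temperature in 100 mM sodium acetate pH 5.5, 5 mM DTT, 0.00005% Triton X-100. Reaction started with 2 uM Z-FR-AMC; AMC fluorescence increase over 60 s gives rate.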
An asterisk follows results filed as active; ? = inconclusive; nt = not tested or not shown; [ ] = dose if it differs, or a comment. Unless noted, calls follow the shape of the dose curve; as a rule, active means well fitted rising curve with a large enough effect; inconclusive means small, poorly fitted or top-dose-only effect; inactive means no such curve, though single readings can be large or run the other way. Potency is read from the fitted curve at half-maximal effect.

No.	molecule	LASV entry inh	Cruzain inh noDet	Cruzain inh Det	SARS PLpro yeast	Marburg entry inh	NS1 function inh	2A StopGo	RE007 growth inh
1	Cc1ccc2cc(C3CC(c4cccs4)=NN3S(C)(=O)=O)c(Cl)nc2c1 (stereo not given)	nt	nt	nt	1%	nt	5%	41%[activator]	16%
2	COCCOC(=O)C1=C(N)OC2=C(C(=O)CC(C)(C)C2)C1c1ccncc1 (stereo not given)	nt	nt	nt	0%	nt	3%	3%	9%
3	CCn1nccc1C(=O)NC1=C(C#N)CCC1	12%	-20%	8.4%	3%	?	4%	-18%	-2%
4	CC(C)c1ccc(S(=O)(=O)N2CCN(C(=O)C3CCCCC3)CC2)cc1	nt	nt	nt	-7%	nt	2%	-24%	2%
5	Cc1ccc(OCC(=O)c2cc(C)n(C)c2C)c([N+](=O)[O-])n1	?	-12%	-3.4%	-4%	4%	51%	14%	5%
6	COc1ccc([N+](=O)[O-])c(S(=O)(=O)c2ccccc2)n1	7.1µM*	nt	nt	-7%	?	-97%	32µM*	?
7	O=C(Nc1ccc(N2CCOCC2)cc1)Nc1ccc2nc(-c3ccco3)c(-c3ccco3)nc2c1	-28%	?	?	2%	?	24%	0%	-8%
8	O=S(=O)(c1cccc2cccnc12)N1CCOCC1	-1%	3%	-0.2%	0%	3%	-5%	6%	4%
9	COc1ccc2c(c1O)-c1cccc3c1C(C2)N(C)CC3 (stereo not given)	nt	-9%	1.1%	nt	1µM*	6%	nt	nt
10	CC(=O)NC(CSc1cc(C)nc2ccc(Br)cc12)C(=O)O (stereo not given)	nt	nt	nt	-1%	nt	1%	-24%	17%
11	COc1cc(Nc2nc3c(S(=O)(=O)c4ccc(C)c(C)c4)nnn3c3ccsc23)cc(OC)c1	-5%[46.1 µM]	1%	-0.2%	nt	nt	nt	-4%	nt
12	Cc1ccc(CNC(=O)CN(C(=O)C2(C)CC(=O)N=C3C=CC=CN32)c2ccc(F)cc2)cc1 (stereo not given)	0%	nt	nt	0%	1%[46.1 µM]	19%	1%	-17%
13	Nc1nc(NCCc2ccccc2)nc(NCCO)c1[N+](=O)[O-]	-24%[46.1 µM]	nt	nt	1%	-17%[46.1 µM]	6%	-15%	-3%
14	COc1ccc(Br)cc1-c1nc(C)c(C(C)=O)n1O	3%	-9%	4.7%	2%	-7%	-9%	0%	-1%
15	NS(=O)(=O)c1cc(C(=O)NCC2CCCCC2)ccc1Cl	1%[46.1 µM]	nt	nt	-2%	-2%[46.1 µM]	5%	12%	-4%
16	CCN(CC)c1cc(-c2ccccc2)ncn1	-1%	-4%	1.1%	5%	-4%	-7%	26%	-2%
17	Cc1ccc(CN2CCc3c(OCC(=O)Nc4cccc(C)c4C)cccc3C2=O)cc1	-19%	?	-3.9%	-4%	-31%	19%	nt	nt
18	O=c1c2ccccc2nc(/C=C/c2ccc([N+](=O)[O-])o2)n1CCCO	4.5µM*	-3%	-6.9%	-26%	2µM*	-117%	?	?
19	Cc1oc2c(C)c3oc(=O)c(CCC(=O)N[C@@H](CC(C)C)C(=O)O)c(C)c3cc2c1C	nt	nt	nt	0%	nt	16%	-13%	6%
20	CCOc1ccc(NC(=S)N2CCCC2)cc1	12%[46.1 µM]	nt	nt	0%	11%[46.1 µM]	6%	9%	7%
21	O=C(O)c1ccccc1C(=O)Nc1ccc(-n2nc(C(F)(F)F)cc2C(F)(F)F)cc1	6%[46.1 µM]	nt	nt	0%	9%[46.1 µM]	-3%	0%	-4%
22	O=C(COC(=O)c1cccc(O)c1)Nc1nnc(-c2ccccc2)o1	10%[46.1 µM]	nt	nt	0%	1%	nt	14%	7%
23	O=C(NC(Cc1ccccc1)C(=O)NCc1ccccn1)c1ccco1 (stereo not given)	3%	-2%	2.0%	-5%	3%	-5%	24%	2%
24	O=c1c2cnn(-c3ccccc3)c2ncn1CCc1ccccc1	4%	-2%	-3.4%	2%	-2%	-16%	7%	3%
25	CC1(C)CC(=O)N(c2cccc(C(F)(F)F)c2)C(=O)C1	nt	nt	nt	-7%	nt	8%	-3%	16%
26	Cc1ccc(CCNC(=O)CCNS(=O)(=O)c2ccc3c(c2)c(=O)n(C)c(=O)n3C)cc1	44%[14.3 µM]	3%	-1.6%	3%	19%	-9%	14%	2%
27	CCC(=O)Nc1nc2nc(-c3ccccc3)cc(-c3ccccc3)n2n1	nt	-14%	0.1%	-5%	0%	12%	-11%	1%
28	COc1ccc(-c2ccc(-c3noc(-c4ccccc4C)n3)c(OC)n2)cc1	4%	-27%	-0.3%	-1%	14%	-17%	-3%	-6%
29	O=C(c1ccc(COc2ccc3ccccc3c2)o1)N1N=C(C(F)F)CC1(O)C(F)F (stereo not given)	?	-1%	-4.6%	-5%	-24%	12%	-15%	-14%
30	CS(=O)(=O)N1CCc2cc(C(=O)NCCc3ccccc3)ccc21	?	-1%	2.4%	nt	?	nt	42%[activator]	nt
31	Cc1ccnc(SCC(=O)c2cc3ccccc3o2)n1	21%[46.1 µM]	nt	nt	6%	-3%[46.1 µM]	nt	26%	19%
32	O=C(COC(=O)C(O)C(O)C(=O)OCC(=O)c1ccc(C(F)(F)F)cc1)c1ccc(C(F)(F)F)cc1 (stereo not given)	-8%	nt	nt	3%	-4%[14.2 µM]	-7%	6%	-2%
33	CCSc1nnc(-c2ccccc2SC)o1	3%[46.1 µM]	nt	nt	1%	7%[46.1 µM]	nt	2%	?
34	CCCCn1c(Cl)nc2c1c(=O)n(C)c(=O)n2C	1%	13%	1.7%	3%	6%	-7%	-23%	-9%
35	Cc1cccnc1NC(=O)c1ccc([N+](=O)[O-])o1	-22%	-9%	-3.5%	12%	5%	-8%	-2%	-6%
36	O=C(CCCCn1c(=O)c2ccccc2n(Cc2ccc(Cl)cc2)c1=O)NCc1ccco1	?	25%	0.2%	7%	?	-14%	?	-7%
37	COc1ccc(-c2cc(=O)oc3cc(OCC(=O)N4C[C@H]5C[C@@H](C4)c4cccc(=O)n4C5)ccc23)cc1	nt	nt	nt	12%	nt	7%	-4%	-5%
38	COc1ccc(OC)c(C2C(C(=O)N(C)C)=C(C)Nc3nc4ccccc4n32)c1 (stereo not given)	17%	-5%	-6.5%	2%	3%	5%	-22%	10%
39	CCC(O)c1cc2c(cc1NC(=O)c1cccc(Br)c1)OCCO2 (stereo not given)	0%[46.1 µM]	-8%	-4.0%	nt	-18%[46.1 µM]	nt	-11%	nt
40	Cc1ccc(C(=O)NCC(=O)OCCCOC(=O)CNC(=O)c2ccc(C)c(C)c2)cc1C	1%	nt	nt	-1%	-9%	nt	-6%	-3%
41	CCc1noc(C)c1C(=O)Nc1cc(Cl)ccc1-n1cncn1	-5%	nt	nt	0%	22%	nt	-13%	?
42	O=C1CCCc2c1[nH]c1ccc(Br)cc21	9%	-11%	1.0%	-2%	-1%	-17%	-7%	-4%
43	CCOc1ccc(C(=O)N2CCN(C(=O)c3ccco3)CC2)cc1OCC	-11%	3%	-3.3%	-4%	-11%	-4%	nt	-1%
44	Cc1cc(O)c2c(c1)OC(C)(C)C1=C2CC(C)CC1 (stereo not given)	nt	nt	nt	-3%	nt	-152%	-13%	?
45	COCCOCC(O)CN1CCN(c2ccccc2)CC1 (stereo not given)	-2%	-10%	4.7%	6%	8%[46.1 µM]	-1%	-25%	-5%
46	Cc1csc(NC(=O)CCNC(=O)c2ccc([N+](=O)[O-])cc2)n1	23%	3%	-2.0%	6%	5%	3%	-8%	3%
47	Cn1c(=O)oc2cc(S(=O)(=O)CCC(=O)N3CCN(c4cccc(Cl)c4)CC3)ccc21	10%[46.1 µM]	3%	0.5%	nt	nt	nt	-28%	nt
48	COC(=O)c1ccccc1NC(=O)Cn1cnc([N+](=O)[O-])c1	nt	nt	nt	5%	nt	12%	-10%	-10%
49	S=C(NCCc1ccccc1)Nc1ccc(Br)cc1	18%	2%	-11%	16%	?	-17%	29%	-15%
50	O=c1c2sc3ccccc3c2n(Cc2ccccc2)c(=O)n1Cc1ccccc1	20%[46.1 µM]	-3%	-0.7%	nt	0%[46.1 µM]	nt	0%	nt
51	COc1ccc(C(=O)NNC(=O)Nc2ccc(C)cc2)cc1	4%	8%	1.1%	-2%	-4%	-16%	-4%	12%
52	CC(=O)Nc1ccc(C(=O)Nc2nc(-c3cccnc3)cs2)cc1	-8%	nt	nt	-3%	-18%	nt	-22%	-10%
53	O=C(NCc1cccnc1)c1ccc(COc2ccccc2Cl)o1	nt	nt	nt	1%	nt	6%	?	-13%
54	CCN(CC(=O)NCCc1ccccc1)S(=O)(=O)c1ccc(Br)cc1	?	-3%	7.2%	0%	-18%	-16%	nt	5%
55	CC(=O)Oc1ccc2c(=O)oc(-c3ccc([N+](=O)[O-])cc3)nc2c1	-1%[46.1 µM]	nt	nt	0%	2%[46.1 µM]	5%	12%	9%
56	Oc1ccc(Cl)cc1-c1cc(-c2ccccc2)n[nH]1	nt	-10%	-13%	-24%	nt	-79%	28%	3%
57	CCC(=O)Nc1nc2ccccc2n1CCN(CC)CC	5%	-2%	-2.6%	7%	-14%	-2%	11%	-2%
58	NS(=O)(=O)c1ccc(NC(=S)N2CCC(O)CC2)cc1	15%	nt	nt	0%	-27%[46.1 µM]	nt	0%	2%
59	CCOc1cc(N2CCOCC2)c(OCC)cc1NC(=O)COC(=O)c1ccccc1OC(F)F	-30%	nt	nt	1%	?	nt	-19%	7%
60	Cc1nc(N2CCOCC2)[nH]c(=O)c1CCC(C)C	9%	3%	2.9%	0%	16%	-1%	20%	-8%
61	Cn1c(=O)c(C(=O)Nc2ncccc2O)c(O)c2ccccc21	nt	?	0.4%	0%	-8%	-152%	50%[activator]	?
62	COC(=O)c1cn(CC(=O)NCc2ccco2)c2ccccc12	18%	-7%	-4.8%	0%	26%	8%	36%[activator]	-2%
63	CCOC(=O)Nc1cc(C(=O)OCC)c(C)nc1C	-11%	3%	3.8%	6%	4%	0%	-20%	-9%
